Screening results from PubChem BioAssay.
hNpr1 antagonist: human Npr1 receptor antagonism. P16066. HEK293 hNpr1 GloSensor cGMP, ANP-stimulated luminescence. Potency, µM (series often up to 46.3 µM), without a hit: at the highest dose activity change, negative = inhibition, most hits filed as inhibitors. 1.6% of 76,000 active. AID 1347048; active = well fitted inhibition curve with a large enough effect; inconclusive = small, poorly fitted or top-dose-only effect; inactive = no such curve, though single readings can be large or run the other way;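 note: nearly all actives have a fitted effect of over 60% in size; nearly all hits also lower the signal before the agonist is added; a reference antagonist and vehicle were the controls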
Target sequence (P16066 whole entry, looked up): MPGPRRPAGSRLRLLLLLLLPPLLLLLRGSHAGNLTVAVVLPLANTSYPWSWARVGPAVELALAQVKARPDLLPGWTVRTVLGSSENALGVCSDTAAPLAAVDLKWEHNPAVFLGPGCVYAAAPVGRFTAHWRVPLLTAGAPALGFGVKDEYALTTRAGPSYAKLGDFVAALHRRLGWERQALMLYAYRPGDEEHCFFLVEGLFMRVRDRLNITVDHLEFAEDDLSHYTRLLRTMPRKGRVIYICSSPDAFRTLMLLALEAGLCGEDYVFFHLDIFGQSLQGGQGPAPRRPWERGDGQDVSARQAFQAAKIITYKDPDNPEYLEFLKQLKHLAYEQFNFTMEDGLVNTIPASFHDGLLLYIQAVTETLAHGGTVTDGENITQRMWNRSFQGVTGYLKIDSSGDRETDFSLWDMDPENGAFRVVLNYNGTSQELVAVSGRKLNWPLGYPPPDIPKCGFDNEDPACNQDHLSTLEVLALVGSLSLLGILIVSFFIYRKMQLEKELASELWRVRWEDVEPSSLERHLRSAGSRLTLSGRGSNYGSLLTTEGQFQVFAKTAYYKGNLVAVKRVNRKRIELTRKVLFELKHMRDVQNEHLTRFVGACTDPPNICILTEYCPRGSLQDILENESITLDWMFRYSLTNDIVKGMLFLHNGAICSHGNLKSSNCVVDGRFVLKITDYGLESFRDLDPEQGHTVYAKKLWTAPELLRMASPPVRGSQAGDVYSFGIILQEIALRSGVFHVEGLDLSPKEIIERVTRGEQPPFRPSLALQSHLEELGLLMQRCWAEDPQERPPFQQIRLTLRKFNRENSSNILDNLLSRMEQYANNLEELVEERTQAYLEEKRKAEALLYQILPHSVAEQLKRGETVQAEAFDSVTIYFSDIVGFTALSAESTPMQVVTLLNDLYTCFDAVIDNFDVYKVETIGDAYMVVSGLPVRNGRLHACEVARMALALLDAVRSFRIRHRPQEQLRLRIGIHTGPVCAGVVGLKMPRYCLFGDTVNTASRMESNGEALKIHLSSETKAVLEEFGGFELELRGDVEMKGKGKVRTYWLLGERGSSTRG
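Compound pre-incubated 30 min at room temperature on GloSensor-loaded HEK293 cells stably carrying hNpr1 and the pGS-40F cGMP biosensor. Stimulation uses hNppA at 0.1 nM final; luminescence is taken at baseline and 20 min post-agonist.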
Starred values were filed as active, the others as inactive; ? = inconclusive; [ ] = another dose, or the depositor's remark. % is set by controls: 0 for no effect and ±100 for the full control effect; potency is the fitted concentration of half-maximal effect.

SMILES | hNpr1 antagonist
CO[C@H]1C(=O)N(C(C)C)[C@H]1C1CCN(S(=O)(=O)c2cccc(F)c2)CC1 | -2%
CN(C)[C@@H]1CN(C(=O)c2ccccc2Cl)C[C@H]1CO | 0%
COc1ccc(C(=O)N2CCCC3(C2)NC(=O)N(Cc2cccc(Cl)c2)C3=O)cc1F (configuration not stated) | -1%
O=C(Nc1ccc(F)cc1)C1CCN(c2cc(C(F)(F)F)ncn2)CC1 | ?
COCCN[C@@H]1C[C@@H]2c3[nH]c4ccccc4c3C[C@@H](C(=O)OC)N2[C@H](c2ccc(F)c(F)c2)C1 | ?
COc1ccc(Cl)cc1-c1ccc2c(c1)C(=O)N1CCN(C(=O)CC(C)(C)C)C[C@@H]1C(=O)N2 | 0%
O=C(Cc1ccccc1)N1CCCC1c1nc(CCOCC2CC2)no1 (configuration not stated) | -1%
CCn1nccc1C(=O)N1C[C@@H](COC)[C@H](c2nc(C3CC3)no2)C1 | -1%
COc1ccc(CN2CCCC(COc3ccccc3C(=O)NC(C)C)C2)c(OC)c1 (configuration not stated) | -3%
CC(C)S(=O)(=O)N1CCC(N(Cc2cccnc2)C2CCOCC2)CC1 | -1%
CCn1nccc1C(=O)N1CCC(Cc2nc(-c3ccccc3)n[nH]2)C1 (configuration not stated) | 1%
O=c1c2nc(-c3cccnc3)ccc2ncn1-c1ccc(F)cc1F | 0%[70.6 µM]
CCCCNCc1ccc(OCC(O)CN2CCSCC2)c(OC)c1 (configuration not stated) | 4%
CN(Cc1cc(C[C@@H]2C[C@H](NCc3ccccn3)C2(C)C)no1)c1ccccc1 | -14%[70.6 µM]
O=C(NCC1CC1)c1cn(C2CN(C(=O)Nc3ccccc3F)C2)nn1 | 2%
COC(=O)c1cccc(C(=O)N[C@H]2CO[C@H]3[C@@H]2OC[C@H]3OC(=O)Nc2ccc(Oc3ccccc3)cc2)c1 | -20%
COc1ccccc1CN1CCn2c(nn(-c3ccc([N+](=O)[O-])cc3)c2=O)C1 | ?
CN(C)C(=O)CN1CCCC(CO)(CC2CC2)C1 (configuration not stated) | 3%
O=C(CCC[C@H]1NC[C@@H]2CC1CN(Cc1ccccc1)C2)NCCCN1CCOCC1 | 4%
CCCn1cc(-c2ccncc2)cc1C(=O)NCc1ccc(C)o1 | 2%

A second format for part of the listing above:
hNpr1 antagonist | SMILES
1% | CCn1nccc1C(=O)N1CCC(Cc2nc(-c3ccccc3)n[nH]2)C1 (configuration not stated)
0%[70.6 µM] | O=c1c2nc(-c3cccnc3)ccc2ncn1-c1ccc(F)cc1F
4% | CCCCNCc1ccc(OCC(O)CN2CCSCC2)c(OC)c1 (configuration not stated)
-14%[70.6 µM] | CN(Cc1cc(C[C@@H]2C[C@H](NCc3ccccn3)C2(C)C)no1)c1ccccc1

Of the compounds above, 3 have sulfur.
SMILES | hNpr1 antagonist
CO[C@H]1C(=O)N(C(C)C)[C@H]1C1CCN(S(=O)(=O)c2cccc(F)c2)CC1 | -2%
CC(C)S(=O)(=O)N1CCC(N(Cc2cccnc2)C2CCOCC2)CC1 | -1%
CCCCNCc1ccc(OCC(O)CN2CCSCC2)c(OC)c1 (configuration not stated) | 4%

Later entries
SMILES | hNpr1 antagonist
O=C(Cc1ccccn1)N1CCc2nc(-c3ccccc3)nc(-c3ccc(Cl)cc3)c2C1 | -17%
CCN1C(=O)CN(C(=O)c2ccoc2)CC12CCOCC2 | 1%
O=C([C@@H]1C[C@H](F)CN1S(=O)(=O)Cc1ccc(Cl)cc1)N1CCCCC1 | -10%
CCC(=O)N1CCc2c(C(=O)NCc3ccncc3)cccc21 | 3%
COc1ccc(CN2CCOC[C@H](Oc3ccccc3)C2)cc1 | -1%[70.6 µM]
CCN1CCN(C(=O)C2CCN(C(=O)N3CC4CC(C3)[C@H]3CCCC(=O)N3C4)CC2)CC1 (some centres not stated) | 1%
CCS(=O)(=O)N1CCCC(c2nc(C(C)C)no2)CCNC(=O)CC1 (configuration not stated) | 5%
Cc1cccc(OCC(=O)N2CCC(c3n[nH]c(=O)n3Cc3ccc(F)cc3)CC2)c1 | 0%
CCN1c2cc(C(=O)NCc3ccc(F)cc3Cl)ccc2C(=O)N2CCCCC21 (configuration not stated) | 0%
Cc1noc(C)c1S(=O)(=O)N1CCCC(Cn2c(C3CC3)nc3cccnc32)C1 (configuration not stated) | -14%
O=C(NCc1ccnc2[nH]ccc12)c1ccncc1 | -4%[70.6 µM]
CN(C)CCNC(=O)c1ccc2c(c1)C1(CCCN(CC3CC3)C1)CN2C (configuration not stated) | -1%[70.6 µM]
O=C(Cc1ccccc1)N1CCC2(CC1)CC(N(C(=O)c1ccccc1)C1CC1)CCO2 (configuration not stated) | -14%
O=C1CCN(C(=O)c2ccccc2)CCCC(C(=O)NCCc2ccccc2)CCN1 (configuration not stated) | 3%
O=C(CC[C@H]1NC(=O)c2ccccc2NC1=O)NCCn1ccc2c(Cl)cccc21 | 0%
O=c1c2nc(OCc3ccc4c(c3)OCO4)ccc2ncn1-c1ccccc1 | 2%[70.6 µM]
O=C(NC1CCCc2c1[nH]c1c(Cl)cccc21)c1ccc2c(c1)OCO2 (configuration not stated) | -4%
CC1(CNC(=O)c2ccc3c(c2)OCO3)CCOCC1 | 7%
C=CCNC(=O)O[C@@H]1CC[C@]2(C)C(CC[C@@H](O)[C@H]2CC(=O)N2CCC[C@H]2CO)[C@]1(C)CO (some centres not stated) | 2%
Cc1noc([C@@H]2CC(F)(F)CN2C(=O)c2ccc(C#N)cc2)n1 | 1%

Another view of 2 compounds above:
canonical_smiles: COc1ccc(CN2CCOC[C@H](Oc3ccccc3)C2)cc1
  hNpr1 antagonist: -1%[70.6 µM]

canonical_smiles: CCN1CCN(C(=O)C2CCN(C(=O)N3CC4CC(C3)[C@H]3CCCC(=O)N3C4)CC2)CC1 (some centres not stated)
  hNpr1 antagonist: 1%

New compounds follow:
SMILES | hNpr1 antagonist
CNC(=O)N1CCC(C2CCN(C(=O)CCc3ccc(OC)cc3)C2)CC1 (configuration not stated) | 1%
Cc1ccc(C)c(NC(=O)N2CCC(Oc3ncccc3C(=O)N(C)C)C2)c1 (configuration not stated) | -1%
CC(=O)Nc1cccc(-c2cnc3[nH]cc(CC(=O)N4CCOCC4)c3c2)c1 | -10%[70.6 µM]
O=C(CC1CCOC2(CCN(S(=O)(=O)Cc3ccccc3)CC2)C1)N1CCCC1 (configuration not stated) | 0%
Cc1cnc(C(=O)NC2C[C@H]3CC[C@@H](C2)N3C(=O)CCCc2ccccc2)cn1 (some centres not stated) | 4%
CCc1ccc(NC(=O)Cn2cccc2-c2nc(-c3ccc(OC)c(F)c3)no2)cc1 | 0%
Cc1[nH]c2ccccc2c1CN1CCc2nc(N3CCN(C)CC3)[nH]c(=O)c2CC1 | 2%
CCCOCC(=O)N1CCCC(c2cc(N3CCCC3)nc(C)n2)C1 (configuration not stated) | 1%
CC(C)CC(=O)N1CCC(CC(=O)NCc2ccccc2)C1 (configuration not stated) | 10%
Cn1cc(-c2cnc3[nH]cc(CC(=O)NC4CCC4)c3c2)cn1 | -2%[70.6 µM]
CNCCN1C(=O)CC[C@H]2CN(C(=O)N3CCOCC3)CC[C@H]21 | -1%
COc1ccc(CN2CC[C@@H]3[C@H]2C(=O)NC[C@H](CCC(=O)NCc2cccs2)N3C)cc1 | 4%
CCCOc1ccc(CNC(=O)[C@@]23CCCC[C@H]2N(C)C(=O)CC3)cc1 | -2%
O=C1Nc2ccc(-c3ccc(Cl)cc3)cc2C(=O)N2CC[C@H](NC(=O)N3CCOCC3)[C@@H]12 | 0%
Cn1cnc2cc(C(=O)N[C@@H]3COCC[C@@H]3OCc3cscn3)ccc21 | 4%
COc1ccccc1C(=O)NC1CCN(C(=O)c2cc3c(=O)[nH]c(C)cn3n2)CC1 | 1%
CN(C)C[C@@H]1CN(C)C[C@H]1NC(=O)c1cc(F)ccc1Cl | 5%
N#Cc1cccc(NC(=O)Cn2ccn3nc4c(c3c2=O)CCCC4)c1 | 1%
Cc1nn(-c2ccc(C(C)C)cc2)c(C)c1[C@@H]1C=C[C@@H](NC(=O)NCc2ccccc2)C1 | 7.1µM*
Cc1ccc(CNC(=O)N2CCCCC2c2nc(C3CC3)n[nH]2)cc1 (configuration not stated) | -1%
COc1ccc(C(=O)N2CCC3(CC2)OCC(C(=O)NC2CC2)N3C(=O)c2ccccc2)cc1OC (configuration not stated) | 4%
COc1ccc(NC(=O)NC[C@H]2O[C@@H]3C[C@@H](CC(=O)N4CCOCC4)O[C@@H]3[C@@H]2O)cc1 | 1%[70.6 µM]
CCc1nc2c(=O)n(CC(=O)NCCC3=CCCCC3)nc(C)c2s1 | -2%
COc1ccc(S(=O)(=O)N[C@H]2[C@H](O)[C@H](O)C[C@@H]2c2ccc(C(F)(F)F)nc2)cc1 | 5%[70.6 µM]
CCn1cc(-c2cc(C(=O)N3CCCCCC3)c3cccc(C)c3n2)cn1 | 1%
O=[S+]([O-])(c1ccccc1)N1CCn2c(nnc2-c2ccccc2)C1 | 0%
Cc1cc(C(=O)N2CCCC(CN3CCOCC3)CC2)nn1C (configuration not stated) | -1%
O=C(NC1CCNCC1)C1CCCN(c2nc(-c3ccccc3)nc3c2CCC3)C1 (configuration not stated) | 0%
C[C@@H](NC(=O)NC1CCCCC1)c1onc(-c2cccnc2)c1C(=O)O | -13%[70.6 µM]
CC(C)NC(=O)c1ccc(-c2ccc(N3CCCCC3)nc2)cc1 | 3%
Cc1nnc(-c2cc(N3CCN(c4ccccn4)CC3)ccn2)n1C | -2%[70.6 µM]
CC(=O)Nc1ccc(C2(C(=O)O)CCCCC2)cc1 | 0%
O=C(CN1C(=O)NC2(CCS(=O)(=O)CC2)C1=O)Nc1cccc(F)c1 | ?
Oc1cccc(-c2cnc3n[nH]c(-c4ccccc4)c3n2)c1 | -14%[70.6 µM]
O=C(CCc1cc2n(n1)CCCNC2)N1CCCN(c2ccncc2)CC1 | 8%
CC(C)(C)C(=O)N1CCC(OC2CCN(Cc3ccccc3)CC2)CC1 | 6%
Cn1cc(CC(=O)N2CCCc3ncc(C(=O)N4CCC(c5ccccc5)CC4)cc32)c2ccccc21 | 16µM*
Cc1oc2ccn(Cc3ccc(F)cc3)c(=O)c2c1C(=O)NCc1cc(F)ccc1F | -19%
O=C(NCC1(O)CCCCC1)c1ccc2nc(Cc3ccccc3F)oc2c1 | -13%
O=C(c1[nH]nc2c1COc1ccccc1-2)N1CCCC(Cc2nc(C3CCOCC3)no2)C1 (configuration not stated) | 2%
Cc1cccc(NC(=O)C2c3ccccc3C(=O)N(CC(C)C)C23CCCC3)n1 (configuration not stated) | -10%
CN(Cc1cccn1C)[S+](=O)([O-])c1cccs1 | -1%[70.6 µM]
Cc1ccc(-c2nnc(C3CN(C(=O)CC4CCCCC4)CC34CCOCC4)o2)cc1 (configuration not stated) | 3%
CC(NC(=O)COc1ccccc1)C(=O)N1CCN(c2ccccn2)CC1 (configuration not stated) | 3%
CC(C)CN1C(=O)CO[C@H](c2ccc(NC(=O)C(C)C)cc2)[C@H]1CO | 4%[70.6 µM]
Cn1ncc2c(N[C@@H](Cc3ccccc3)C(N)=O)nc(-c3ccncc3)nc21 | 0%
O=C(NC[C@H]1OC[C@@H](N(Cc2ccccc2F)Cc2ccccc2F)[C@@H]1O)c1ccccc1 | 0%
O=C(NCC1CC1)c1noc(-c2ccc[nH]c2=O)n1 | -3%
COc1ccc(-c2cn3c(n2)CO[C@@H](CNCc2ccc(Cl)cc2)C3)cc1 | ?
COc1ccccc1N1CCCc2ncc(C(=O)Nc3ccc4[nH]ccc4c3)cc21 | -13%[70.6 µM]
O=C(c1nnc(COc2cccc(N3CCOCC3)c2)n1Cc1ccccc1)N1CCC[C@@H]1c1ccc(Br)cc1 | ?
COc1ccccc1CC(=O)N1CC[C@@H]2NC(=O)[C@H]3C[C@H](NC(=O)C4CCCC4)CN3C(=O)[C@H]21 | 3%
COCCn1c(=O)n([C@H]2CCCN(C(=O)c3cccc4nccnc34)C2)c2ncccc21 | 0%
COc1ccccc1CN[C@H]1CC(C)(C)[C@@H]2C[C@@](C)(O)CC[C@]12CCC(=O)NC1CC1 | 1%[70.6 µM]
O=C1NCN(Cc2ccc(Cl)cc2)C12CCN(Cc1ccc(F)cc1)CC2 | -22%
COCCNc1cc(-c2cncc(C(=O)N3CCOCC3)n2)c2cc[nH]c2n1 | -2%
Fc1ccc2nc([C@H]3CCN(Cc4ncc[nH]4)C3)[nH]c2c1 | -3%[70.6 µM]
COCCCNC(=O)C(NC(=O)C1CC1)C1CCN(C(=O)c2ccc(C)cc2)CC1 (configuration not stated) | 2%
O=C(NC1CCCCC1)N1CCC(c2nc(C3CCOCC3)no2)CC1 | 12%
Cn1cccc1C(=O)N1CCC(N2C(=O)C(O)C23CCCCC3)CC1 (configuration not stated) | -1%

More records follow:
SMILES | hNpr1 antagonist
COC(=O)c1ccc2nc(C[C@@H]3C[C@@H](C(C)C)[C@H](CNC(=O)C4CCC4)C=C3C)[nH]c2c1 | -13%
CN(C)C(=O)N1CCCn2nc(CNC(=O)c3sccc3N)cc2C1 | -3%
CCc1ccc(N2CC(c3noc(-c4ccc(N(C)C)cc4)n3)CC2=O)cc1 (configuration not stated) | -5%
CC(=O)Nc1ccc(CN2CCCC3(CN[S+](=O)([O-])c4ccccc4N3)C2)cc1 (configuration not stated) | 9%

Not all compounds are listed; rates above refer to the full screens.
